Source: PubChem
Rango release inh: inhibition of RanGTP-driven Rango-importin beta dissociation | O95149+P62826 | Biochemical FRET Rango-importin beta, RanGTP-induced dissociation | Potency, µM (series often up to 46.1 µM), for inactives: top-dose activity change, negative = inhibition | 0.071% of 340,000 active | AID 540253; active means falling FRET ratio curve, often poorly fitted, with flat reads before Ran was added; inconclusive means other falling curves, or compound fluorescence or quenching; inactive means flat or rising ratio curve;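 also: potency is read from the fitted curve at half-maximal effect; % of control where 0% means no effect; nearly all actives have a fitted effect of over 45% in size; -100% = wells without RanGTP and RCC1; the record marks most hits as doubtful in a second field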
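Rango FRET biosensor (snurportin-1 IBB flanked by N-terminal EYFP and C-terminal CFP10) at 0.1 uM, with 0.25 uM importin beta in PBS, 1mM DTT, 0.02% Tween-20, 0.1% BSA. 0.6 uM Ran, 2mM GTP and 0.2 uM RCC1 were then added for 45 min at room temperature. Inhibition read as loss of FRET rise.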
GLA inh pH 4.5: blocks human alpha-galactosidase A at pH 4.5. purified enzyme, 4-MU-alpha-Gal fluorescence, pH 4.5. activity change, negative = inhibition, % at 105 µM. 230,000 tested, under 10 active. AID 1467; inconclusive = small, poorly fitted or top-dose-only inhibition, or a rising curve; inactive = flat fitted curve, though single readings scatter; no compound was filed as active;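 also: 0% = full activity with enzyme and -100% = basal without enzyme; dose as in the result columns while the protocol names 77 µM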
Target sequence (P06280 whole entry, looked up): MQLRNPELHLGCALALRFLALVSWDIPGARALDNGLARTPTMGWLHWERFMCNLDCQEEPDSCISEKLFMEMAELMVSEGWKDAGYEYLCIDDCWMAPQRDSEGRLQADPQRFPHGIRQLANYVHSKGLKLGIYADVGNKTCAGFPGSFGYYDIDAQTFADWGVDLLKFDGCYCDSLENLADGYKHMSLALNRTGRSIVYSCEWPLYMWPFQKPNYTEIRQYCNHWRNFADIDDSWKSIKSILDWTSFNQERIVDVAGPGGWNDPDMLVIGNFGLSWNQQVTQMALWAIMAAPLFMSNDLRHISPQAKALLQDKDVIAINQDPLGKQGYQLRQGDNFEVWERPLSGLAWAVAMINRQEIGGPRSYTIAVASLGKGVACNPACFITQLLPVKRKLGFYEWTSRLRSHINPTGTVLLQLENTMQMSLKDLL
Rango-impB inh: prevents formation of the Rango-importin beta complex; Q14974; Rango CFP/YFP FRET sensor + importin beta, 45 min; Potency, µM (series often up to 92.2 µM), for inactives: top-dose inhibition of complex formation; 0.031% of 340,000 active; AID 540263; active = rising FRET ratio curve, often small or poorly fitted; inconclusive = mostly compound fluorescence or quenching in the first reads; inactive = flat curves in all reads;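 also: potency is read from the fitted curve at half-maximal effect; 0% = DMSO wells and 100% = buffer wells lacking importin beta; nearly all actives have a fitted effect of over 15% in size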
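Inhibition scored from the CFP 486 nm/YFP 530 nm FRET ratio 45 min after adding 0.125 microM importin beta to 50 nM Rango biosensor preincubated 5 min with compound (room temperature, PBS with DTT, Tween-20, BSA). No-importin wells as positive control.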
miR-21 reporter: miR-21 reporter, rising signal. HeLa miR-21 FLuc reporter, luciferase, 48 h. Potency, µM (highest dose often 38.3 µM), without a hit: at the top dose reporter change, positive = more light. 340,000 tested, under 10 active. AID 2288; active = well fitted rising curve with a large enough effect; inconclusive = small, poorly fitted or top-dose-only effect; inactive = no such curve, though single readings can be large or run the other way;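 also: % of control where 0% means no effect; miR-21 action dims this reporter so a rising signal means less miR-21 action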
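Luminescence from a firefly luciferase reporter carrying a miR-21 binding site downstream, stably expressed under a CMV promoter in HeLa cells that make miR-21 endogenously, reports miRNA modulation after 48 h compound exposure up to approximately 40uM final.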
Numbers without * were called inactive; ? = inconclusive; / = not tested or not shown; & = joins results of further samples.

A first look:
SMILES	Rango release inh	GLA inh pH 4.5	Rango-impB inh	miR-21 reporter
CC(C)COc1ccc(C(=O)Nc2sc3c(c2C(=O)O)CC(C)(C)OC3)cc1	0%	7	-0.3%	22%
COCCCn1c(=N)c(C(=O)NC2CCCCC2)cc2c(=O)n3ccccc3nc21	?	20	?	-1%&-1%
COc1cccc(/C=N/Nc2cc(Cl)nc(C)n2)c1O	-12%	2	2.5%	-40%
CCOc1ccc(C(NC(=O)c2ccco2)c2ccc(OC)c(OC)c2)cc1 (configuration not stated)	3%	-3	3.1%	-3%

This part in full, from the start:
SMILES	Rango release inh	GLA inh pH 4.5	Rango-impB inh	miR-21 reporter
CC(C)COc1ccc(C(=O)Nc2sc3c(c2C(=O)O)CC(C)(C)OC3)cc1	0%	7	-0.3%	22%
COCCCn1c(=N)c(C(=O)NC2CCCCC2)cc2c(=O)n3ccccc3nc21	?	20	?	-1%&-1%
COc1cccc(/C=N/Nc2cc(Cl)nc(C)n2)c1O	-12%	2	2.5%	-40%
CCOc1ccc(C(NC(=O)c2ccco2)c2ccc(OC)c(OC)c2)cc1 (configuration not stated)	3%	-3	3.1%	-3%
N#CCSc1nnc(-c2ccc(S(=O)(=O)N3CCOCC3)cc2)n1CC1CCCO1 (configuration not stated)	4%	1	-2.7%	0%
NC(=O)c1cccnc1Oc1ccccc1	3%	-23	-2.0%	-4%
COC(=O)[C@H](CCSC)NC(=O)NCc1ccc(S(N)(=O)=O)cc1	-12%	-7	0.6%	-2%
CCCCOc1ccc(C2=CSC3=NCCN23)cc1[N+](=O)[O-]	-1%	/	-2.3%	13%
CC(NS(=O)(=O)c1ccccc1)C(c1cccs1)N1CCN(c2ccccc2)CC1 (configuration not stated)	4%	-15	-2.0%	14%
CC(=O)N1CCCc2cc(S(=O)(=O)Nc3ccc(C)cc3C)ccc21	0%	3	2.3%	-4%
O=C(c1ccccc1)c1ccc(C(=O)N2CCN(c3ccc(O)cc3)CC2)cc1	-13%	/	-1.4%	/
O=C(O)c1ccccc1C(=O)Nc1ccc(S(=O)(=O)Nc2nccs2)cc1	-6%	-4&-8	-5.1%	/
CN(CCc1ccccn1)C(=O)c1cccnc1Oc1ccccc1	2%	0	1.6%	7%
N#Cc1c(NC2CCCCC2)nc(-c2ccco2)c2c1CCCC2	?	?	?	-1%
C=CCN1C(=O)c2ccc(C(=O)N(CC)CC(=O)Nc3ccc(OC)cc3)cc2C1=O	6%	/	-0.3%	/
Cc1[nH]nc2c1/C(=N\O)CCC2	5%	0	0.3%	2%
COc1cc(C(=O)N2CCN(S(=O)(=O)c3ccc(C)cc3)CC2)ccc1OCc1c(C)noc1C	-1%	12	6.1%	-2%
COc1ccc(C2CC(c3ccc(C(F)(F)F)cc3)=NN2c2ccc(S(N)(=O)=O)cc2)cc1 (configuration not stated)	?	/	?	/
CN1C(=O)C(C)(C)c2cc(S(=O)(=O)NCC(=O)NCc3ccccc3)ccc21	-13%	/	0.6%	2%
C[C@H](NC(=O)c1ccc(C(C)(C)C)cc1)C(=O)N1CCC2(CC1)NCCc1[nH]cnc12	1%	/	-0.4%	-2%
N=c1oc2ccc(Cl)cc2cc1C(=O)Nc1ccc(F)cc1	-8%	/	10%	-17%
COc1cccc2c1OC[C@@H](CO)[C@H]2N(C)C(=O)Nc1ccc(Cl)cc1Cl	0%	3	-0.1%	15%
COc1ccc(C(=O)N2CCCc3ccccc32)cc1Br	20%	/	-2.1%	-6%
Cc1ccc(NC(=O)CSc2nc3c(c(=O)[nH]2)CCCC3)cc1C	10%	/	-2.2%	0%
CC(=O)Oc1ccc(-c2ccc(C(=O)NCCc3ccc(S(N)(=O)=O)cc3)cc2)cc1	-6%	/	0.8%	2%

(further entries)
SMILES	Rango release inh	GLA inh pH 4.5	Rango-impB inh	miR-21 reporter
O=C(Nc1nc2ccc(Oc3ccccc3)cc2s1)c1cc([N+](=O)[O-])ccc1N1CCOCC1	2%	-12	-1.5%	-1%
COc1ccccc1N(CC(=O)NCc1ccccc1)S(C)(=O)=O	-5%	-14	2.5%	-10%
Cn1nccc1NC(=O)Nc1cccc(Cl)c1Cl	-2%	-1	-0.1%	6%
CCOC(=O)CN1NC2(CCCCC2)NC1=S	16%	-2	5.7%	0%
COCCn1c(SCC(=O)N2CC(=O)Nc3ccccc32)nc2ccccc2c1=O	3%	12	0.4%	0%
O=C1NN=C(CSc2n[nH]c(=S)s2)CS1	9%	2	0.9%	0%
C=CCn1c(SCC(N)=O)nnc1-c1cnccn1	-1%	-6	-0.5%	-11%
O=[N+]([O-])c1ccc(N2CCC(O)CC2)nc1	2%	-10	-0.3%	-6%
Cc1nn2c(C)c(C(=O)Nc3ccccc3)cnc2c1C#N	8%	5	-4.0%	-2%
COc1cc(CC(=O)OCC(=O)NC2CC2)cc(OC)c1OC	-15%	-1	-1.3%	2%
CCOC(=O)N1CCC(Nc2ncnc3c2cnn3-c2ccc(Cl)cc2)CC1	4%	1	-1.0%	-58%
COCCOC(=O)c1sc(=S)n(CCOC)c1N	-20%	-9	5.8%	2%
CCOC(=O)C1CCN(Cc2ccc(OCc3ccccc3)c(OC)c2)CC1	-2%	/	5.0%	-9%
O=C1CN(C(=O)c2ccccc2)c2ccccc2N1	1%	-5	-3.2%	0%
COc1ccccc1CN1CC(C(=O)NCc2nccn2C)CCC1=O (configuration not stated)	1%	/	5.9%	2%
Cc1cc(C)c2nc(N3C(=O)C(O)=C(C(=O)c4ccco4)C3c3cccc(O)c3)sc2c1 (configuration not stated)	4.1µM*	/	?	/
OC(CNCCc1ccc(C(F)(F)F)cc1)COc1ccc2ccccc2c1 (configuration not stated)	3%	?	3.5%	?
CC(CCc1ccccc1)NC(=O)C1CCN(S(=O)(=O)N2CCCCC2)CC1 (configuration not stated)	0%	4	0.6%	0%
Cc1ccccc1-c1nnn(Cc2cccc(S(=O)(=O)N3CCOCC3)c2)n1	13%	/	-1.9%	/
O=C1Cc2cc(NS(=O)(=O)c3ccc(F)cc3)cc3c2N1CCC3	-3%	/	5.2%	/
O=C(O)CN(CCc1ccccc1)S(=O)(=O)c1ccccc1	2%	/	0.7%	-3%
Cc1c(C(=O)N2CCCCCC2)oc2ccccc12	9%	-3	3.9%	-20%
Cc1ccc([N+](=O)[O-])cc1NC(=O)CSc1nncc2ccccc12	13%	/	0.2%	0%
CCN(c1ccccc1)S(=O)(=O)c1ccc(C(=O)NCC(=O)Nc2ccc(F)c(F)c2F)cc1	-27%	/	?	/
Cc1ccc(C(=O)CN(CCC(=O)O)S(=O)(=O)c2ccc([N+](=O)[O-])cc2)cc1	-9%	/	0.6%	/

Other compounds
SMILES	Rango release inh	GLA inh pH 4.5	Rango-impB inh	miR-21 reporter
c1ccc2sc(NC3=NCN(CC4CCCO4)CN3)nc2c1 (configuration not stated)	8%	12	-0.2%	-32%
Cc1c(C(=O)C(=O)N2CCN(C)CC2)c2ccccc2n1C	-9%	2	2.0%	-4%
CN(C)S(=O)(=O)c1ccc(NC=C(C#N)C#N)cc1	-21%	-5	?	0%
COc1ccccc1C(=O)NC(=O)COC(=O)c1nccnc1N	-8%	/	-3.1%	/
COc1cc(/C=C/C(=O)OCC(=O)N(C)CC(=O)Nc2ccc(F)cc2)ccc1OC(F)F	-5%	/	4.2%	/
Cc1cccc(NC(=O)C2CCCN2C(=O)OCC(C)C)c1 (configuration not stated)	-3%	11	-1.4%	1%
O=C(NCCc1ccccc1)c1nc(CS(=O)(=O)c2ccc(Cl)cc2)no1	-12%	/	-1.5%	7%
CCCCCc1ccc(CC(=O)O)cc1	15%	-9	-2.0%	-7%
COc1cccc(/C=N/Nc2nnc3c(n2)[nH]c2ccccc23)c1OC	-12%	-5	1.9%	-37%
Cc1cc2nc(C(C)(C)C)cc(N)n2n1	5%	-22	0.4%	-5%
CCOC(=O)N(C)S(=O)(=O)c1ccccc1[N+](=O)[O-]	13%	5	0.1%	-2%
CC(C)C(C(=O)NCc1ccco1)N(C(=O)CNS(=O)(=O)c1ccccc1)C1CCCC1 (configuration not stated)	10%	2	-0.8%	-7%
CN(C)CCCNc1oc(-c2ccccc2Cl)nc1S(=O)(=O)c1ccc(F)cc1	-12%	/	0.7%	4%
Clc1ccc(-c2nnc(CNC3CC3)o2)cc1	8%	-1	-0.6%	-34%
O=S(=O)(NCCc1ccccc1)c1ccc(Br)cc1	5%	/	-2.4%	-12%
Nn1c(Cc2cccc3ccccc23)nnc1SCc1c(F)cccc1Cl	14%	11	5.6%	-16%
CC(=O)Nc1ccc2c(c1)CN(c1cc(C)ccc1C)CO2	-6%	7	0.5%	-1%
CCOC(=O)CNC(=O)C(Cc1ccccc1)NS(=O)(=O)c1ccc2c(c1)CCC(=O)N2 (configuration not stated)	-17%	/	2.6%	/
CC(Oc1ccccc1F)c1nnc(SCC(=O)Nc2ccc(N3CCOCC3)cc2)o1 (configuration not stated)	-11%	/	2.5%	/
Cc1c(CCC(=O)O)c(=O)oc2cc3occ(-c4ccc(Cl)cc4)c3cc12	1%	/	-4.6%	-26%
Cc1cccc(NC(=O)CSc2nc(NS(=O)(=O)c3ccccc3)cc(=O)[nH]2)c1	5%	-7	-0.4%	0%
CCOC(=O)c1nc(C)nc(Sc2n[nH]c(-c3ccccc3)n2)c1C	2%	-2	-1.8%	9%
CC(C)=CCc1c(O)ccc(C2COc3c(CC=C(C)C)c(O)cc(O)c3C2=O)c1O (configuration not stated)	-1%	/	2.2%	/
Cc1ccc2c(=O)cc(C(=O)Nc3ccc(S(=O)(=O)Nc4onc(C)c4C)cc3)oc2c1	-2%	/	6.6%	-1%&2%
Cc1ccc(Cl)cc1NC(=O)c1ccccn1	14%	-2	3.5%	-26%

(further entries)
SMILES	Rango release inh	GLA inh pH 4.5	Rango-impB inh	miR-21 reporter
O=C(O)c1cccc(NC(=O)c2cccc(NC(=O)C3CCCO3)c2)c1 (configuration not stated)	3%	2	-2.2%	-17%
CC1CC1C(=O)OCC(=O)NC(=O)NC12CC3CC(CC(C3)C1)C2 (configuration not stated)	-3%	-10	-1.0%	-48%
CCN1CCN(CC(=O)Nc2ccc(S(=O)(=O)N3C(C)CCCC3C)cc2)CC1 (configuration not stated)	1%	/	-0.4%	-2%
Cc1noc(C)c1C(=O)OCC(=O)NCCc1ccc(S(N)(=O)=O)cc1	-14%	/	4.4%	/
Nc1nc(C(F)(F)F)cc(=O)n1N	5%	-6	-3.7%	-2%
Cc1cccc([C@@H]2[C@@H]3C(=O)N(Cc4ccccc4)C(=O)[C@@H]3[C@]3(Cc4ccccc4)C(=O)N(c4cccc(Cl)c4)C(=O)N23)c1	1%	/	0.8%	/
CC(=O)Nc1c2c(nn1-c1ccc(C)cc1C)CSC2	-5%	3	-0.3%	-8%
COc1ccccc1CNC(=O)c1ccccc1OC	0%	-5	-1.9%	-16%
COC(=O)c1ccc2c(=O)n(CC3CCCO3)c(=S)[nH]c2c1 (configuration not stated)	5%	-13	6.3%	-3%
COc1cc(C(c2sc3nc(C)nn3c2O)N2CCN(c3ccccc3)CC2)cc(OC)c1OC (configuration not stated)	0%	-6	-1.6%	-10%
O=C(Cn1cnc2c(NC(=O)OCc3ccccc3)ncnc21)NCc1ccccn1	19%	/	?	/
O=C1Nc2ccccc2N(O)N1c1cc(-c2ccccc2)[nH]n1	-10%	13	-4.8%	-1%
Cc1c(NC(=O)c2ccc(NS(=O)(=O)c3ccc(F)c(F)c3)cc2)c(=O)n(-c2ccccc2)n1C	28%	/	-1.6%	/
COc1ccc(/C=N/OCc2ccc(Br)cc2)c(OC)c1	9%	/	-1.1%	-16%
CCOC(=O)C1=C(C)NC(SCC(N)=O)=C(C#N)C1c1ccncc1 (configuration not stated)	0%&-8%	-1	0.5%&-2.2%	-1%
N=C1CCCN1CC(=O)c1ccc(Cl)cc1	2%	4	-1.1%	-49%
CC(C)NC(=O)c1onc(CSc2ccc(Cl)cc2)c1C(=O)NC(C)C	1%	-14	-0.2%	3%
Cn1c2c(c(=O)n(C)c1=O)C(c1ccc(O)cc1)Nc1ccccc1O2 (configuration not stated)	26%	5	3.6%	-7%
COc1cc(C)c(C)cc1S(=O)(=O)N1CCN(Cc2ccccc2)CC1	-4%	-12	-3.6%	-12%

The list is partial, so the mix of outcomes need not match the whole.
